Screens as filed in PubChem BioAssay.
Mtb H37Rv = M. tuberculosis H37Rv growth inhibitors, H37Rv strain (AID 1626). M. tuberculosis H37Rv growth inhibition; higher % means a stronger effect. inhibition, % at 10 µM; hits with a dose series show IC50 in µM. hit rate 0.95% among 220,000;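 active = confirmed in a dose series; inconclusive = inhibition above 80% but not taken into the dose series; inactive = below 80% or under 30% at every dose of the series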;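 note: bacteria incubated seven days before Alamar blue readout; 0% = bacteria only wells and 100% = bacteria with antibiotic wells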
Mtb bLac sens = beta-lactam sensitization of Mtb H37Rv | M. tuberculosis H37Rv growth with meropenem, percent inhibition; hits of this screen are not shown here | inhibition, % at 25 µM | hit rate 0.27% among 330,000 | AID 434955;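 active = about 74% or more and at least 40 points above the plate without the antibiotic, then above 30% in a dose series; inconclusive = first-round hits that could not be retested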;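 note: growth measured after seven days incubation then overnight dye step; 0% = bacteria only wells and 100% = bacteria with antibiotic; twin plates without the antibiotic show which effects depend on it; some results filed as inactive read as strong as hits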
Arbovirus inh = blocks arbovirus infection; arbovirus infection cell-based antiviral screen; inhibition, % at 10 µM; hit rate 0.37% among 200,000; AID 1251;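 active = inhibition from about 30%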;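 note: bluetongue infection of BSR cells; cell survival read as ATP light after 72 h; 0% = infected wells without compound and 100% = uninfected wells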
RecA splice inh = Mtb RecA intein splicing inhibition; P9WHJ3; inhibition, %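 (about 9 µM by stock and volumes)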; hit rate 0.75% among 290,000; cell-free RecA intein splicing, fluorescence; in the data active = inhibition above about 30%; inconclusive = no clear call, values can overlap the other calls;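 note: 0% = vehicle wells and 100% = reference inhibitor control wells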
Target sequence (P9WHJ3 whole entry, looked up, canonical isoform): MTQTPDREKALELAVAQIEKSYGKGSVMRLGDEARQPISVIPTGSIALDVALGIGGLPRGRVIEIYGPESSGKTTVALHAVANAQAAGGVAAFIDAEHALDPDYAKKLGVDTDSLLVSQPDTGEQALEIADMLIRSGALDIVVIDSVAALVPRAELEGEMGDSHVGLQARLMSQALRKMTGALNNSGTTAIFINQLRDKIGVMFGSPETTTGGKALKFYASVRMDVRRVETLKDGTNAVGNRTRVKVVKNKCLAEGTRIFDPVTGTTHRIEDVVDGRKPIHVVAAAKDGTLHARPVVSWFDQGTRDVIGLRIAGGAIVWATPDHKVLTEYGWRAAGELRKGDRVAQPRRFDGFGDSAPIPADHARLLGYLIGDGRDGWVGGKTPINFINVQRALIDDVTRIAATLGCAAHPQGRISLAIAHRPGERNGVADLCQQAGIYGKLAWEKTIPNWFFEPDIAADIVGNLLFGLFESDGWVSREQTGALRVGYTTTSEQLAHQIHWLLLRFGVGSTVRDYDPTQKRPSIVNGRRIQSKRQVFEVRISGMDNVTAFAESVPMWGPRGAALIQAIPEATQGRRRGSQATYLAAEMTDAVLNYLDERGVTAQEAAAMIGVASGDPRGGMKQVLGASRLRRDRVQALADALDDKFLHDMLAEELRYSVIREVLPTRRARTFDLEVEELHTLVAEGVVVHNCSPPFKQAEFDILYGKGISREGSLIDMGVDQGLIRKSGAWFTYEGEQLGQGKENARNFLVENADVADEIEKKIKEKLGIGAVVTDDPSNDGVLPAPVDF
YopH inh = blocks Yersinia enterocolitica YopH tyrosine phosphatase. hit rate 0.16% among 140,000. AID 898. fluorescence Ex485/Em525. inhibition, %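 (about 10 µM by stock and volumes)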;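 active = inhibition of 50% or more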;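 note: controls were vehicle for no effect and minimum signal wells for full effect; inactives centre near -20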
Arbovirus inh repeat = further read-out of Arbovirus inh, marked with its call; inhibition, %; measured here: 10K subset replicate screen; many hits read low in the repeat;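 first of two repeat runs on a subset; 0% = infected and 100% = uninfected wells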
An asterisk follows results filed as active; u = inconclusive; x = not tested or not shown; & = joins results of further samples. These rows are one share of the data; the hit share may differ from the screen's.

SMILES	Mtb H37Rv	Mtb bLac sens	Arbovirus inh	RecA splice inh	YopH inh	others
CCN(CC)C(=O)C1CCCN(c2ccccc2[N+](=O)[O-])C1 (stereo not drawn)	1.2%	-0.6	3.7	-3.5	x
O=C(c1ccc(-n2cnnn2)cc1)N1CCCCC1	1.4%	2.7	6.5	-4.8	-135.7
CC(=O)Nc1sc(N/N=C/c2ccc(O)cc2)nc1-c1ccc(C)cc1	-11.3%	89.1	x	1.5	x
CCN(CC)c1ccc(C=Nc2ccc(C)cc2)c(O)c1	1.4%	56.1	-9.0	x	4.5
Cc1cc(C)c2c(n1)sc1c(=O)n(Cc3ccc(F)cc3)cnc12	-1.7%	0.2	x	-1.2	x
COc1ccccc1NC(=O)Cn1c(=O)sc2ccccc21	-5.3%	-12.2	-0.1	9.5	-12.2
S=C(NCc1ccccc1)NNc1nc2ccccc2[nH]1	3.6%	0.0	-8.5	1.9	x
CCSc1nc(O)c(Cc2ccccc2)c(=O)[nH]1	-0.6%	2.2	1.0	x	-10.5
Cc1ccc(C)c(N2CCN(C(=O)c3ccc(N4CCOCC4)c([N+](=O)[O-])c3)CC2)c1	x	33.5	x	5.4	x
CC(=O)Nc1cc([As](=O)(O)O)ccc1O	-2.0%&-9.8%	-9.3	8.1	-1.3	-18.2
Cc1ccc(S(=O)(=O)N/N=C\c2cccnc2)cc1	14.8%	2.1	1.0	0.0	9.4
O=C1CCc2cc(S(=O)(=O)NCc3ccc(F)cc3)cc3c2N1CCC3	x	-12.2	x	0.8	x
O=c1[nH][nH]c(-c2ccccc2)c1C=Nc1ccc(F)cc1F	0.0%	-3.5	5.6	0.6	x
COCCCNC(=O)c1c(-c2ccccc2)noc1C	1.6%	1.9	7.6	-3.2	-7.3
CC(C)(C)c1ccc(C(=O)Nc2cccc(-n3cnnn3)c2)cc1	x	72.5	x	0.7	x
COc1ccc(S(=O)(=O)Nc2c(C(=O)O)[nH]c3ccccc23)c(OC)c1	0.1%	-0.2	5.0	-1.0	-65.6
CCCCN(C(=S)Nc1ccc(F)cc1)c1c(N)n(CCC)c(=O)[nH]c1=O	2.8%	-4.7	-2.0	-0.3	x
CC(OC(=O)c1nc(Cl)ccc1Cl)C(=O)Nc1ccc2c(c1)OCCO2 (stereo not drawn)	x	-8.3	x	-4.8	x
Cc1cc(C)c(S(=O)(=O)N2CCN(S(=O)(=O)N3CCC(C)CC3)CC2)c(C)c1	x	12.9	x	0.9	x
CCCCN(C(=O)c1ccc(C)c(S(=O)(=O)N2CCOCC2)c1)c1c(N)n(CCCC)c(=O)[nH]c1=O	x	-9.2	x	-1.5	x
COc1cccc(C(=O)CN(C(=O)c2ccc(Cl)c(Cl)c2)N2C(=O)C3CCCCC3C2=O)c1 (stereo not drawn)	-6.8%	2.4	6.7	-0.2	13.5
CCC(=O)N1CCc2cc(Br)cc(S(=O)(=O)N3CCCC(C(=O)O)C3)c21 (stereo not drawn)	x	3.5	x	-2.5	x
O=C(/C=C/c1ccco1)Nc1ccc(Cl)c(S(=O)(=O)N2CCOCC2)c1	2.2%	-7.8	x	-0.8	x
CC(C)C1OC2(C)OC(=N)C1(C#N)C(C#N)(C#N)C2c1ccccc1 (stereo not drawn)	-4.4%	1.6	1.1	-224.4	-18.4
CN1CCN(c2ccc([N+](=O)[O-])c(Sc3nncn3C)c2)CC1	9.7%	0.5	7.8	1.3	x
Cc1nc(N2N=C3/C(=C/c4ccc(F)cc4)CCCC3C2c2ccc(F)cc2)sc1C(=O)N(C)C (stereo not drawn)	x	90.9	-24.4	-199.1	-13.9
O=C(CCN1CCCCCC1)Nc1cccc(F)c1	-4.2%	-1.6	3.4	-0.3	-13.3
O=C(O)c1ccc2c(c1)N(Cc1ccccc1F)C(=O)c1ccccc1S2=O (stereo not drawn)	-5.5%	-7.2	4.1	4.0	2.2
Cc1cc(C)nc(NS(=O)(=O)c2ccc(N/C=C/C(=O)c3ccc(Cl)cc3)cc2)n1	0.0%	22.6	0.2	-4.0	-15.2
CCN1C(=O)/C(=C2/C(=O)N3c4c(cc(OC(C)=O)cc42)C(C)=CC3(C)C)SC1=S	-6.4%	3.7	-4.5	-1.5	-4.0
COc1ccccc1CNC(=O)C(C)NS(=O)(=O)c1ccccc1 (stereo not drawn)	1.7%	-6.4	4.1	2.1	9.9
CCCn1c(N)c(C(=O)CN2CCc3ccccc3C2)c(=O)n(C)c1=O	0.3%	-5.7	6.2	4.9	x
CSc1ncc(CN2CCCC(C(=O)c3sccc3C)C2)cn1 (stereo not drawn)	12.4%	-0.7	-2.1	0.7	x
CCCc1cc(C(=O)Nc2ccc(C#N)cc2)no1	x	3.5	x	-0.1	x
Cc1ccc(S(=O)(=O)CCC(=O)N(CCCN2CCOCC2)c2nc3ccccc3s2)cc1	x	74.2	x	-0.9	x
CCN(CC)C(=O)N1CCc2ccccc2C1CN1C(=O)c2ccccc2C1=O (stereo not drawn)	-5.9%	-0.8	x	0.7	-23.4
COc1ccc(C(=O)NNC(=O)CN2CCN(c3nc(-c4ccccc4)cs3)CC2)cc1	0.8%	-3.1	-0.5	7.7	-3.6
CCOC(=O)C1=C(C)NC(=O)NC1c1ccccc1 (stereo not drawn)	-3.9%	-8.7	-3.2	-0.5	-14.7
CCN(CC)S(=O)(=O)c1cc(NC(=O)C(C)N2CC=C(c3ccccc3)CC2)ccc1C (stereo not drawn)	6.4%	-0.4	10.3	16.0	-9.9
CN(C)C(CNc1ccc(S(C)(=O)=O)cc1[N+](=O)[O-])c1ccccc1 (stereo not drawn)	x	6.0	x	1.6	x
CN(C)CC(CCC(CN(C)C)C(=O)c1ccccc1)C(=O)c1ccccc1 (stereo not drawn)	-1.2%	x	x	-0.1	x
O=C(C1CCN(S(=O)(=O)c2ccc(F)cc2)CC1)N1CC=C(c2ccccc2)CC1	-4.0%	-3.9	4.0	3.2	-37.1	Arbovirus inh repeat=5.6
CCO[C@H]1OC(C(=O)N2CCCCCCC2)=C[C@@H](C)[C@@H]1CCCO	x	5.3	2.0	-1.3	x
COc1ccc(CC(=O)Nc2sc(Cc3ccccc3)c(C)c2C(N)=O)cc1	-2.5%	x	-5.2	0.9	-38.9
Cc1cccc(C)c1NC(=O)CC(NCc1ccco1)C(=O)O (stereo not drawn)	x	-2.8	3.9	1.4	4.9
Cc1ccc(S(=O)(=O)N2CCCCC2)cc1NC(=O)COC(=O)C1CC2C=CC1C2 (stereo not drawn)	u	-1.1	6.0	-0.3	-7.1
COC(=O)C1=C(C)N(c2cc(C)cc(C)c2)/C(=C/c2ccc(O)cc2)C1=O	-2.9%	20.6	-15.4	0.9	x
CCN(CC)c1ccc(NC(=O)COC(=O)/C=C/c2nc3ccccc3s2)cc1	48.6%	50.8	-5.4	-2.5	-16.7

Sorted by molecular weight (rising): some entries from above.
SMILES	Mtb H37Rv	Mtb bLac sens	Arbovirus inh	RecA splice inh	YopH inh	others
O=C(c1ccc(-n2cnnn2)cc1)N1CCCCC1	1.4%	2.7	6.5	-4.8	-135.7
CCSc1nc(O)c(Cc2ccccc2)c(=O)[nH]1	-0.6%	2.2	1.0	x	-10.5
Cc1ccc(S(=O)(=O)N/N=C\c2cccnc2)cc1	14.8%	2.1	1.0	0.0	9.4
Cc1cccc(C)c1NC(=O)CC(NCc1ccco1)C(=O)O (stereo not drawn)	x	-2.8	3.9	1.4	4.9
CC(C)C1OC2(C)OC(=N)C1(C#N)C(C#N)(C#N)C2c1ccccc1 (stereo not drawn)	-4.4%	1.6	1.1	-224.4	-18.4
CSc1ncc(CN2CCCC(C(=O)c3sccc3C)C2)cn1 (stereo not drawn)	12.4%	-0.7	-2.1	0.7	x
CN(C)CC(CCC(CN(C)C)C(=O)c1ccccc1)C(=O)c1ccccc1 (stereo not drawn)	-1.2%	x	x	-0.1	x
CC(OC(=O)c1nc(Cl)ccc1Cl)C(=O)Nc1ccc2c(c1)OCCO2 (stereo not drawn)	x	-8.3	x	-4.8	x
Cc1ccc(S(=O)(=O)N2CCCCC2)cc1NC(=O)COC(=O)C1CC2C=CC1C2 (stereo not drawn)	u	-1.1	6.0	-0.3	-7.1
Cc1ccc(S(=O)(=O)CCC(=O)N(CCCN2CCOCC2)c2nc3ccccc3s2)cc1	x	74.2	x	-0.9	x

(list continues)
SMILES	Mtb H37Rv	Mtb bLac sens	Arbovirus inh	RecA splice inh	YopH inh	others
O=C(Nc1ccccc1)Nc1csc2ccccc12	14.7%	x	x	0.5	x
CN(C)C=C1C(=O)c2ccccc2C1=O	7.4%	-0.6	-8.8	3.7	-4.1
CCCSc1nnc2nc(C)cc(C)n12	-14.5%	2.6	7.5	-1.1	-41.7	Arbovirus inh repeat=6.7
Oc1ccc(N=Nc2ccc3c(c2)OCO3)c2ccccc12	u	59.6	x	1.2	x
CCOC(=O)c1c(NC(=O)C2C3C=CC(C3)C2C(=O)O)sc2c1CCC(C)C2 (stereo not drawn)	-2.5%	-2.7	-9.4	-1.1	-27.3
CCOC(=O)c1nc(Nc2ccc(C(=O)OC)cc2)c2ccccc2n1	x	1.5	-6.6	-6.4	-29.6
Cc1[nH]c(=O)[nH]c(=O)c1S(=O)(=O)N(CC(C)C)CC(C)C	6.4%	-1.8	5.5	-3.5	x
CSc1ccc2c(c1)N(CCC1CCCCN1C)c1ccccc1S2 (stereo not drawn)	u	100.2	-44.6	2.9	-7.3
CCCCC1CCC(C(=O)N2CCOCC2)CC1 (stereo not drawn)	-7.0%	1.0	-1.8	0.1	-20.4
CC(C)(C)c1cc(NC(=O)NN2CCOCC2)nn1-c1c(Cl)cc(Cl)cc1Cl	8.2%	5.8	x	x	x
O=C(c1ccc2c(c1)C(=O)N(Cc1ccco1)C2=O)N1CCOCC1	-3.3%	10.2	0.5	0.7	-43.3
CCCCCCN(C(=O)CCCCCN1C(=O)NC(c2ccc(-c3ccccc3)cc2)C(C(=O)OCc2ccccc2)=C1C)C(C(=O)NCCCC)c1cccc(C(=O)OC)c1 (stereo not drawn)	6.4%	x	x	2.1	x
CC(C)C(C)NC(=O)CSc1nc2scc(-c3ccco3)c2c(=O)n1-c1ccccc1 (stereo not drawn)	-2.1%	-7.9	6.7	2.0	-10.0
CC(C)C[C@@H](CSc1ccccc1)N1CCN(C)CCC1=O	x	10.7	x	-2.2	x
CC(C)CC(C(=O)OCC(=O)Nc1ncc(Cl)cc1Cl)N1C(=O)c2ccccc2C1=O (stereo not drawn)	-5.1%	2.7	10.5	9.8	-163.5
COc1cc(OC)c(OC)cc1CNC(=O)c1cc(=O)c2ccccc2o1	x	0.4	x	0.8	x
CC(C)C(c1nnnn1Cc1ccc(F)cc1)N1CCC(C(N)=O)CC1 (stereo not drawn)	0.7%	-4.4	25.3	-1.6	x
N#CCCn1nc(-c2ccc([N+](=O)[O-])cc2)cc1Nc1ccccc1NC(=O)C(F)(F)F	12.6%	-8.7	2.6	0.4	-48.2
C/C(N)=C(/C#N)C(=O)CSc1nc2ccc(C)cc2[nH]1	-3.0%	-12.2	3.2	-3.6	-35.5
COC(=O)N/N=C/c1ccc(-c2cc(Cl)ccc2Cl)o1	0.3%	5.1	3.5	0.4	-10.3
CC(C)(C)NC(=O)C(c1ccccc1)N(C(=O)c1ccco1)C1CC1 (stereo not drawn)	-11.9%	12.9	13.6	-2.4	-31.4
COC(=O)c1ccc(OC(=O)c2nn(C)cc2Cl)c(OC)c1	-1.4%	-10.3	-2.2	16.8	-22.9	Arbovirus inh repeat=1.9
CC(C)Oc1ccc(C2CCC(=O)NC2=O)cc1 (stereo not drawn)	1.0%	-9.7	3.8	0.9	-17.4
CC(C)NC(=O)CSc1ccccc1C(=O)NCc1ccc2c(c1)OCO2	5.0%	-10.1	0.0	-1.0	9.1
Cn1c(SCc2cnc(-c3ccccc3)s2)nnc1C1COc2ccccc2O1 (stereo not drawn)	-6.9%	-4.2	9.4	-0.3	-47.5
O=C(OCn1nnc2ccccc2c1=O)c1cccnc1Cl	-4.1%	82.1	0.7	3.1	-9.1
Cc1ccccc1N=C1c2cc([N+](=O)[O-])ccc2-c2ncccc21	6.7%	16.6	9.0	5.3	-35.2
COc1cc(NC(=O)c2ccco2)c(OC)cc1NC(=O)CCC(=O)Nc1cc(C)cc(C)c1	0.3%	-6.1	14.7	-2.6	-17.7
Cc1ccc(CNC(=O)C2CC2c2ccccc2)cc1 (stereo not drawn)	8.3%	9.1	-6.7	3.0	-21.1
COC(=O)c1ccc2c(c1)NC(=O)C(N(CC(C)C)CC(C)C)S2 (stereo not drawn)	-7.2%	2.7	x	1.1	x
CC(C)OC(=S)N/C(=N\S(=O)(=O)c1ccccc1)c1ccccc1	6.4%	-3.1	8.9	1.0	-27.8
